gsp antag – qHTS for Antagonists of gsp, the Etiologic Mutation Responsible for Fibrous Dysplasia/McCune-Albright Syndrome: qHTS; 340,000 tested, 0.4% active; gsp-mutant cells, cAMP HTRF, 30 min; control for the full effect not named in the record; Potency, µM (doses to about 76.9 µM), inactives show at the top dose activity change, negative = inhibition, hits mostly inhibitors; active = falling curve of any shape with a large fitted effect; inconclusive = falling curve, mostly with a smaller effect; inactive = flat or rising curve; cell line not stated here;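 note: intracellular cAMP measured with PDE inhibitor Ro 20-1724 present during compound exposure; potency is the fitted concentration of half-maximal effect; % is set by controls: 0 for no effect and ±100 for the full control effect; nearly all actives have a fitted effect of over 65% in size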
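HTRF cAMP read-out (cAMP-d2 plus anti-cAMP antibody-K in lysis buffer, 30 min RT). Before lysis, cells are exposed to compounds with […] for 30 min at 37C in DPBS containing Ca/Mg, BSA and Tween 20.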
TRPML1 agonist – qHTS for Agonists of the Human Mucolipin Transient Receptor Potential 1 (TRPML1). TRPML1-expressing cells, Ca2+ dye fluorescence, FDSS; host cell line not named in the record; reference of the full effect not given here. 410,000 tested, 0.12% active. Mucolipin-1 (Homo sapiens), Q9GZU1. activation, % (concentration not given with the values); in the data active = activation above about 50%; inconclusive = about 30% to 50%; inactive = below about 30%; note: 0% is about no effect; the text of the record puts the active cut at 80%
Target sequence (Q9GZU1 whole entry, looked up): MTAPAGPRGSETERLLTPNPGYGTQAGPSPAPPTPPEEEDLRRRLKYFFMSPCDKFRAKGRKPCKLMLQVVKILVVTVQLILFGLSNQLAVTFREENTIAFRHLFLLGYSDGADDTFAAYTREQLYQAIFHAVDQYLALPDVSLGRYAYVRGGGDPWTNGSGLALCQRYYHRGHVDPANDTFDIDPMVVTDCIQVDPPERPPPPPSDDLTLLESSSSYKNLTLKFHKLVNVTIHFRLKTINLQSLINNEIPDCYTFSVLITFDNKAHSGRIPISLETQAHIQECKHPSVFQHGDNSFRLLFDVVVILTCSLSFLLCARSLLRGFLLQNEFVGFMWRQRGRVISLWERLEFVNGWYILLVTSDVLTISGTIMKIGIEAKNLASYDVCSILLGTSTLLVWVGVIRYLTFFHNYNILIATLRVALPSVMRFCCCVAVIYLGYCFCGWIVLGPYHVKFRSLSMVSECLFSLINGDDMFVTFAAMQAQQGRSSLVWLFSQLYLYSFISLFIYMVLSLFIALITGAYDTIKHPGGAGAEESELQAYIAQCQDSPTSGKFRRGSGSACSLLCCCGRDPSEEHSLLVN
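Kinetic FDSS Ca2+ read in Tet-induced TRPML1-DL cells (ABD Ca8 dye plus quencher, 45-90 min RT loading): baseline, then compound, then 110 s agonist window; EC80 agonist 54-4 at 4uM final added afterwards for a 110 s antagonist window.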
gsp agonist – qHTS for Agonist of gsp, the Etiologic Mutation Responsible for Fibrous Dysplasia/McCune-Albright Syndrome: qHTS; gsp mutant cells, cAMP HTRF, 30 min; control for the full effect not named in the record; Potency, µM (top dose mostly 76.9 µM), for the others: at the top dose activation (cAMP increase), actives largely listed as activators; AID 624287, 2012; 340,000 tested, 0.13% active; active = well fitted activation curve with a large enough effect; inconclusive = small, poorly fitted or top-dose-only effect, or another doubt; inactive = no such curve, though single readings can be large or run the other way; cell line not stated here;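 note: phosphodiesterase inhibitor Ro 20-1724 added with compounds to block cAMP breakdown; potency is the fitted concentration of half-maximal effect; nearly all actives have a fitted effect of over 60% in size; about a fifth of the inactives were tested at one dose only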
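Cells in DMEM/10% FBS with G418 were pretreated with compounds in DMSO plus […] (300 uM stock) for 30 min at 37C. cAMP was measured by HTRF (cAMP-d2 plus anti-cAMP antibody-K) after 30 min at room temperature.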
ClpP mod – qHTS Assay for Activators of ClpP; ATP-dependent Clp protease proteolytic subunit (Bacillus subtilis (strain 168)), P80244; purified B. subtilis ClpP, FRET peptide cleavage, 20 min; Potency, µM (doses to about 57.5 µM), for inactives: top-dose activity change, negative = active; 340,000 tested, 1.9% active; AID 651965, 2013; active = well fitted falling curve with a large enough effect; inconclusive = small, poorly fitted or top-dose-only effect; inactive = no such curve, though single readings can be large or run the other way; note: potency is the fitted concentration of half-maximal effect; the source files actives as falling curves though it sought activators and does not explain the sign; nearly all actives have a fitted effect of over 65% in size; many hits overshoot -100%
Target sequence (P80244 whole entry, looked up): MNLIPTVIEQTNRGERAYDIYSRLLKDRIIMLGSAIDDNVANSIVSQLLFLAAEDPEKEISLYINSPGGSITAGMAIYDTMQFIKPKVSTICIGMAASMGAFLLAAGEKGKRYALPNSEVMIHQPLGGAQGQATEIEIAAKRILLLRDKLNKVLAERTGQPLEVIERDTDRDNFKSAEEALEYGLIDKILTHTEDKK
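FRET quenching reversal measured ClpP activation: 10 microg/mL B. subtilis ClpP at pH 8 with the FRET-FV decapeptide, read at 430 nm after 320 nm excitation. The 20-min minus 0-min signal was scaled between DMSO/no-enzyme wells and ADEP (5.8 microM final).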
Menin MLL FP FL – qHTS Assay for Inhibitors Targeting the Menin-MLL Interaction in MLL Related Leukemias: Competition With Fluorescein Labeled MLL-derived Peptide | 290,000 tested, under 10 active | FP activity change, % at 61.4 µM | Fluorescence polarization, fluorescein-MLL peptide displacement from menin; inconclusive = falling polarisation curve, or a change in total fluorescence; inactive = total fluorescence flat and polarisation flat or rising; no compound was filed as active; the % refers to the polarisation; negative = inhibition;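 note: % of control where 0% means no effect; inhibitors lower the polarisation; unlabelled MLL peptide was the positive control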
TRPML1 blocker – qHTS for Inhibitors of the Human Mucolipin Transient Receptor Potential 1 (TRPML1). Mucolipin-1 (Homo sapiens), Q9GZU1. TRPML1-inducible cells, Ca2+ dye fluorescence, FDSS; stronger effect = lower value; inhibition of EC80 agonist-evoked calcium signal. activity change, negative = inhibition, % (test concentration not listed). 390,000 tested, 0.02% active. AID 624415, 2012; in the data active means activity change below about -50%; inconclusive means about -30% to -50%; inactive means above about -30%;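 note: stimulus is agonist 54-4 at its EC80 concentration; % is set by controls: 0 for no effect and ±100 for the full control effect; compound concentration not given in the record; the text of the record puts the active cut at -80%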
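TRPML1-DL cells, Tet-induced overnight (~16 h, 37 °C) at 1,500 cells/well, were loaded with Ca8 no-wash dye plus quencher for 45-90 min at room temperature. Compounds were pinned during FDSS kinetic reading; agonist 54-4 at EC80 (4 uM final) then added.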
Starred values were filed as active, the others as inactive; ? = inconclusive; . = no result given; [ ] = another dose, or the depositor's remark.

SMILES	gsp antag	TRPML1 agonist	gsp agonist	ClpP mod	Menin MLL FP FL	TRPML1 blocker
COc1cccc(C2NC(=O)c3n[nH]c(-c4cccs4)c32)c1 (stereo unspecified)	.	0.5	.	-2.7%	.	1.6
CC(=O)OCC#CCSc1nnc(-c2cccc(Br)c2)o1	.	2.2	.	-1.4%	.	22.4
COc1cccc(NC(=O)Cc2cccs2)c1	3.5%	0.8	2.6%	-2.1%	-2.5	-6.8
CCOC(=O)c1c(N)n(-c2ccc(N)cc2)c2nc3ccccc3nc12	-2.6%	4.4	-23.8%	-4.1%	-0.1	1.9
CC1CCN(CCNC(=O)C2CCCN(S(=O)(=O)c3cccc4nonc34)C2)CC1 (stereo unspecified)	2.8%	0.5	0.0%	-3.6%	4.4	7.6
CC(=O)N1CCC(=NNC(=O)CSc2cc(C)c(Br)cc2C)CC1	-6.3%	0.1	33.1%	1.9%	5.4	-6.6
COc1ccc(CNC(=O)CCC(=O)Nc2nnc(C(F)(F)F)s2)cc1	2.6%	0.7	-5.1%	-1.4%	0.1	-9.8
COc1ccc(CNC(=O)CN2C(=O)CSc3ccc(S(=O)(=O)N4CCC(C)CC4)cc32)cc1	.	0.7	.	-2.3%	.	-4.9
Cc1ccccc1C(=O)N1CCC(C(=O)Nc2nccs2)CC1	-3.2%	0.2	?	0.2%	-4.3	-6.1
Cc1cc(CNC(=O)c2ccc3nc(Cc4ccccc4F)oc3c2)nn1C	0.3%	-0.6	-18.2%	-2.9%	.	24.2
O=C(CSC1=NS(=O)(=O)c2ccccc2N1)NCCc1ccccc1	-11.1%	-0.6	25.4%	-1.5%	.	-2.8
CCC/C=C1/CCCOC(C(=O)NCCOC)(C(F)(F)F)C1 (stereo unspecified)	.	0.7	.	.	2.5	12.9
CCc1ccc2[nH]c(=O)c(C(c3nnnn3Cc3ccco3)N3CCC(C)CC3)cc2c1 (stereo unspecified)	-12.4%	0.2	-0.6%	-5.8%	1.4	5.3
COc1ccccc1Nc1nn2c(=O)c3ccc(C(=O)NCCC4=CCCCC4)cc3nc2s1	.	1.1	.	-7.7%	.	34.4
O=C(Cc1c(F)cccc1Cl)Nc1ccccc1C(=O)N1CCCCC1	5.7%	-0.5	5.7%[15.4 µM]	1.2%	.	26.3
O=C(NCC1CCCN1S(=O)(=O)c1cccs1)c1ccc(Cl)cc1 (stereo unspecified)	0.9%	0.6	-3.7%[15.4 µM]	.	.	-4.1
Cc1cc(NC(=O)c2cc(-c3ccccn3)nc3ccccc23)no1	9.1%	-0.6	7.4%	-7.0%	-4.6	3.4
Cn1c(=NC(=O)CCS(=O)(=O)c2ccccc2)sc2cc(F)ccc21	11.3%	1.4	-27.2%	-4.0%	.	1.2
CC1(C)CC(=O)C(/C=N/c2ncccc2C(=O)O)=C(O)C1	-3.2%	0.2	-30.1%[inhibitor]	7.3%	2.8	6.9
Cc1ccc(CN2C(=O)CSC2c2ccc(F)cc2)cc1 (stereo unspecified)	1.6%	3.2	0.8%	0.9%	2.9	13.5
CC(C)CN(C(=O)c1ccc(N2CCCC2=O)cc1)C1CCS(=O)(=O)C1 (stereo unspecified)	-0.1%	0.9	51.0%[15.4 µM]	.	.	3.5
Cc1ccc(SCC(=O)N2CC(C)OC(C)C2)cc1 (stereo unspecified)	10.4%	-0.2	-0.6%	-3.1%	-0.2	-1.1
C/C(=N\NC(=O)c1cccs1)c1ccncc1	4.2%	0.4	29.3%	0.4%	1.9	-1.8
Cc1cc2c(cc1S(=O)(=O)NCc1ccccc1)n(C)c(=O)c(=O)n2C	3.2%	-0.1	?	-20.0%	0.8	1.4
O=C(OCc1nnc(-c2ccccc2)o1)c1ccc(Cl)cc1	5.9%	4.1	-27.1%	-0.5%	0.0	3.6
CC1CN(C(=O)c2cc3cc(Cl)ccc3[nH]2)CC(C)O1 (stereo unspecified)	2.8%	1.1	22.1%	-6.3%	14.5	-11.7
O=C(O)CCC(=O)NNC(=O)COc1ccc(Cl)cc1Cl	8.7%	0.2	0.3%[15.4 µM]	.	0.9	-5.0
CCN(CC(=O)Nc1ccc2c(c1)OCCO2)C(=O)c1ccc(Cl)cc1Cl	1.6%	-0.5	6.1%	-14.1%	.	13.4
O=C(N/N=C/c1ccc(O)cc1)c1cc(C23CC4CC(CC(C4)C2)C3)[nH]n1	-17.6%	-0.3	-21.7%[15.4 µM]	.	-2.2	-11.4
O=c1cc(-c2ccc([N+](=O)[O-])cc2)nc2cc(-c3ccc(F)cc3)[nH]n12	6.0%	-0.6	-20.8%	1.4%	4.9	-6.6

A different layout for four compounds above:
Below each compound: gsp antag	TRPML1 agonist	gsp agonist	ClpP mod	Menin MLL FP FL	TRPML1 blocker
- Cc1cc2c(cc1S(=O)(=O)NCc1ccccc1)n(C)c(=O)c(=O)n2C
  3.2%	-0.1	?	-20.0%	0.8	1.4
- O=C(N/N=C/c1ccc(O)cc1)c1cc(C23CC4CC(CC(C4)C2)C3)[nH]n1
  -17.6%	-0.3	-21.7%[15.4 µM]	.	-2.2	-11.4
- O=C(OCc1nnc(-c2ccccc2)o1)c1ccc(Cl)cc1
  5.9%	4.1	-27.1%	-0.5%	0.0	3.6
- Cc1ccc(SCC(=O)N2CC(C)OC(C)C2)cc1 (stereo unspecified)
  10.4%	-0.2	-0.6%	-3.1%	-0.2	-1.1

Further entries follow.
SMILES	gsp antag	TRPML1 agonist	gsp agonist	ClpP mod	Menin MLL FP FL	TRPML1 blocker
CCCCNC(=O)CC1N=C2c3ccccc3N=C(SCC(=O)NCc3ccccc3Cl)N2C1=O (stereo unspecified)	.	0.2	.	17.8µM*	.	0.3
CC(=O)C1=C(O)C(=O)N(CCN(C)C)C1c1ccc(Cl)cc1 (stereo unspecified)	-7.8%	-0.2	-13.5%	-1.9%	-0.5	-7.2
CCCCNC(=O)c1ccc2c(c1)NC(=O)C(CS(=O)(=O)Cc1cccc(C)c1)N2 (stereo unspecified)	.	-0.9	.	31.6µM*	.	-11.6
O=C(NCCSc1ccc(Cl)cc1)c1ccc(CN2CCOCC2)cc1	-18.2%	1.0	-1.5%[15.4 µM]	.	0.8	34.2
O=C(O)c1ccccc1-c1nc2ccccc2[nH]1	0.5%	0.0	8.0%[15.4 µM]	.	-2.4	-14.4
CCS(=O)(=O)NC(C)C(c1cccs1)N1CCN(c2ccc(OC)cc2)CC1 (stereo unspecified)	-1.7%	-0.3	-28.1%	-2.4%	-1.2	-1.2
CCN(CC)c1nc2ccccc2nc1C(=O)Nc1ccc(C(C)=O)cc1	.	1.5	.	-0.4%	.	38.0
CCc1ccc(N(C2C=CS(=O)(=O)C2)S(=O)(=O)c2ccc(C)cc2)cc1 (stereo unspecified)	-1.4%	1.0	-21.8%	-1.1%	3.0	-6.8
C=CCn1cc(C(C)=O)c(=O)[nH]c1=O	7.8%	0.1	?	.	-1.1	5.1
Cc1cccc(C)c1Nc1c(-c2ccsc2)nc2ncccn12	-8.9%	0.3	-52.7%[inhibitor]	0.6%	3.6	-15.2
C/C=C(\C)C(=O)Nc1cccc(C2=NOC3(C2)C[C@H](C(N)=O)N(C(=O)c2cc([N+](=O)[O-])cc([N+](=O)[O-])c2)C3)c1 (stereo partly specified)	9.5%	-0.4	.	2.7%	1.5	11.3
COC(=O)C1CC23C=CCN4CCC5(c6ccccc6NC15C2C)C43 (stereo unspecified)	18.9%	0.7	10.0%[15.4 µM]	.	-2.2	-2.2
COc1cccc(CN(CCC(=O)O)Cc2cccc(OC)c2)c1	.	-0.1	24.2%	-5.8%	.	3.1
COc1ccc(C2=NN(C(C)=O)C(c3cccs3)C2)cc1OC (stereo unspecified)	10.6%	0.0	24.8%	.	-5.0	0.2
O=C1CN(S(=O)(=O)c2ccccc2)CC(=O)N1CCc1ccccc1	13.6%	-0.2	15.1%	1.9%	0.8	-9.9
COc1ccc(/C=N/N(CCC(=O)NC(C)(C)C)C2=NS(=O)(=O)c3ccccc32)cc1	?	0.4	0.4%[15.4 µM]	1.6%	-5.2	-0.3
CC(C)N1CCN(Cc2cccc(-c3ccco3)c2)CC1CCO (stereo unspecified)	4.1%	-0.4	9.1%	.	-8.9	-27.7
CC(=O)N(Cc1cc2cc(C)ccc2[nH]c1=O)c1cccc(C)c1C	5.3%	0.5	?	-28.9%	-5.6	29.3
N#CC1=C(C=Nc2ccccc2O)CCC1	-2.1%	-0.3	-18.3%	-7.5%	?	10.2
C/C(=N\NC(=S)NCc1ccccc1)c1ccc(Br)cc1	-10.9%	2.4	-4.8%[15.4 µM]	.	?	14.2
CC(C)(C)NC(=O)c1nn2c(C(F)(F)F)cc(-c3ccccc3)nc2c1Br	-6.6%	-0.1	-8.5%	1.6%	11.1	8.4
CCOC(=O)C1=C(Nc2cccc(Cl)c2)OCC1=O	5.7%	-0.1	-0.5%	-2.0%	-1.8	-2.1
O=C(CN1CCN(c2ccccn2)CC1)NC1CCCC1	3.3%	0.6	-1.5%	-5.3%	-0.1	-18.1
COc1cn(CC(=O)Nc2cccc(C)c2)c(CN2CCCCC2)cc1=O	.	0.8	.	-1.0%	.	5.3
O=C(NNC(=S)Nc1ccccc1Cl)c1ccccc1	-13.4%	-0.4	?	?	-2.4	-13.2
Cc1ccc(/C=N/n2c(C)n[nH]c2=S)o1	9.8%	-0.9	9.4%	-1.1%	3.5	-13.8
Cc1ccc(-c2ccc(/C=N/NC(N)=S)o2)cc1	-24.0%	2.9	8.2%[15.4 µM]	.	5.3	37.3
Cn1cc(Br)c(C(=O)NNC(=O)Cc2ccc(Cl)cc2)n1	15.8%	-0.4	0.2%	.	-0.4	-3.0

Sorted by length of the SMILES (lowest first): some entries from above
SMILES	gsp antag	TRPML1 agonist	gsp agonist	ClpP mod	Menin MLL FP FL	TRPML1 blocker
O=C(CN1CCN(c2ccccn2)CC1)NC1CCCC1	3.3%	0.6	-1.5%	-5.3%	-0.1	-18.1
Cc1ccc(-c2ccc(/C=N/NC(N)=S)o2)cc1	-24.0%	2.9	8.2%[15.4 µM]	.	5.3	37.3
COc1ccc(/C=N/N(CCC(=O)NC(C)(C)C)C2=NS(=O)(=O)c3ccccc32)cc1	?	0.4	0.4%[15.4 µM]	1.6%	-5.2	-0.3

Screening data deposited in PubChem BioAssay by National Center for Advancing Translational Sciences (NCATS).
